MLL AF4-AF9 inh: inhibitors of human MLL-AF4/AF9 interaction. inhibition, % at 10 µM. P42568. AID 651704. hit rate 0.47% among 350,000. AlphaScreen, biotin-AF4 peptide binding to FLAG-AF9;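 active = every replicate reaching a set inhibition limit, whatever the replicate mean, cut at about 25% in these data; inconclusive = mean inhibition reaches that limit but some replicates miss it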;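 note: 0% = plate neutral control median and 100% = total signal loss; the record names both 10 and 1 µM as test concentration; the first replicate is given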
Target sequence (P42568 whole entry, looked up): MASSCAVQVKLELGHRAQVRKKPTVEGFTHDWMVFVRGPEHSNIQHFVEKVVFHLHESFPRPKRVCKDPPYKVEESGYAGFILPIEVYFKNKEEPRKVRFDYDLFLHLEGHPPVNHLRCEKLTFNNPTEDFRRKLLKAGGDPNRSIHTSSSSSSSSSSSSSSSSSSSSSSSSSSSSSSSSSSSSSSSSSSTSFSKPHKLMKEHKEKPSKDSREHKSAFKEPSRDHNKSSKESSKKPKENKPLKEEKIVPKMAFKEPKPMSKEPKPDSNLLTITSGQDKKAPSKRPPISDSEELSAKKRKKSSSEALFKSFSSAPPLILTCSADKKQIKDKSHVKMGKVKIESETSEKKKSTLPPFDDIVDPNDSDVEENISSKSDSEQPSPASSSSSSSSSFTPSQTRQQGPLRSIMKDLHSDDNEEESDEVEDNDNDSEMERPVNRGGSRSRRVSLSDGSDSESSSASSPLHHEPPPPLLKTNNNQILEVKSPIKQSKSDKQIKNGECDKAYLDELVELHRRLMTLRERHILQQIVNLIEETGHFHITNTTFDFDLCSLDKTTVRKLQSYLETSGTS
RanGTP-Impb inh: disruptors of Ran-importin-beta complex formation – biochemical, FRET, CFP-Ran, YFP-importin-beta, homogeneous, primary screen; hit rate 1.1% among 300,000; inhibition, % (test concentration not listed); cell-free CFP-Ran/YFP-importin-beta FRET ratio;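 active = most replicates above 15%; inconclusive = exactly half above 15%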;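 note: 0% = DMSO wells and 100% = Ran loaded with GDP instead of GTP; wells of about 40 µL received 100 nL stock; the first replicate is given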
FGF22 binding: shifts melting point of recombinant human FGF22. hit rate 1.5% among 340,000. recombinant FGF22 thermal shift, SYPRO orange fluorescence; percent of sucrose octasulfate shift, DMSO zero. calls only at 9.99 µM;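 active = melting point raised past a set limit in the mean and every replicate; inconclusive = no clear call; three in four hits are not shown here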
Target sequence (Q9HCT0 whole entry, looked up): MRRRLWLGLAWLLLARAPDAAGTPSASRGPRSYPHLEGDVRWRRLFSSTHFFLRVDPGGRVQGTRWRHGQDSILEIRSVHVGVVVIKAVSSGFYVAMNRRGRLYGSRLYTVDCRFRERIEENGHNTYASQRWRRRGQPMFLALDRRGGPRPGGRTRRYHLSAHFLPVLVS
UCH37 DUB inh: inhibitors of human deubiquitinating enzyme UCH37; purified proteasome/UCH37, Ub-AMC cleavage fluorescence; inhibition, % (test concentration not listed); hit rate 0.33% among 330,000; AID 588478;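 active = mean of two replicates above 20%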;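 note: 0% = compound-free wells with enzyme and 100% = wells lacking proteasome; stock transfer was 100 nL into about 20 µL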
Target sequence (Q9Y5K5 whole entry, looked up): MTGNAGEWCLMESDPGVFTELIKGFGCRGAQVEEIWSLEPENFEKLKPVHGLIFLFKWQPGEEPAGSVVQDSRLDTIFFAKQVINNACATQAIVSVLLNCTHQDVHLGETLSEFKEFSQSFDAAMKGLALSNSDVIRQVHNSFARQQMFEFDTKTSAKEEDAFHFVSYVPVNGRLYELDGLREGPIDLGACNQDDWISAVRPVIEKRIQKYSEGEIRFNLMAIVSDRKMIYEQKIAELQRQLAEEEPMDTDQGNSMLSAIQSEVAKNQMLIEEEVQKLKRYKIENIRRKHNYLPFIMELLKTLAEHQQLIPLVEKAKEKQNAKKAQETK
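System: Proteasome-associated human UCH37 deubiquitinase; Input: 0.15 nM proteasome in added enzyme buffer; Also added: Ub-AMC substrate from 1 µM stock; Incubation: 30 min compound-proteasome preincubation then 25 min substrate reaction, room temperature; Detection: fluorescence, ex 355 nm, em 460 nm; Read-out: % inhibition of Ub-AMC cleavage fluorescence; Benchmarks: no-proteasome and no-compound wells.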
Vif A3G: inhibitors of Vif binding to APOBEC3G peptide, primary screen, biochemical, TR-FRET, GST-Vif 1-94, biotin-A3G peptide, dose response retest (AID 1117319); TR-FRET GST-Vif / biotin-A3G peptide binding; higher % means a stronger effect; test concentration not given here; strong numbers were not always called active; one-dose inhibition, %; IC50 in µM for titrated hits; hit rate 0.57% among 260,000;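 active = above the screen mean plus three standard deviations and confirmed in dose response; inconclusive = results disagree or hit not tested in dose response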;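 note: Vif residues 1-94 fused to GST binding biotinylated APOBEC3G peptide 110-148; 0% = full assay without inhibitor and 100% = GST in place of GST-Vif; retest series ran down from 100 µM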
HNF4A DNA FP: change in binding of human HNF4 alpha to DNA. P41235. hit rate 0.3% among 360,000. activity change, % at 10 µM. HNF4a-FITC DNA binding, fluorescence polarization, 1 h; in the data active = activity change above about 30%, passing the limit was not always enough;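 note: controls were the assay level and a saturating level of protein; the project sought stronger binding though the title names inhibitors; some compounds called inactive have numbers as strong as hits; positive values seem to mean higher polarization but the record does not say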
Ecoli growth: E. coli growth inhibition | OD600 absorbance (test concentration not listed) | hit rate 0.21% among 330,000 | AID 1053175 | Escherichia coli growth, OD600, 23 h; hits give low values;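 active = OD600 absorbance below the run mean of sample wells minus 3.6 SD, in any replicate, cut at about 0.56 in these data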;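 note: stock transfer was 300 nL into about 60 µL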
Starred values were filed as active, the others as inactive; i = inactive; ? = inconclusive; . = no result given; & = joins results of further samples. A portion of the library, so the mix of outcomes need not match the whole.

SMILES	MLL AF4-AF9 inh	RanGTP-Impb inh	FGF22 binding	UCH37 DUB inh	Vif A3G	HNF4A DNA FP	Ecoli growth
COc1ccc(C(=O)Cn2nnc(-c3ccccc3-n3cnnn3)n2)cc1	-0.8	0.8	i	3.5	?	-3.5	0.699
CC1CCCC(C)N1C(=O)CSc1nnc(COc2ccc(F)cc2)o1 (stereo unspecified)	1.6	-0.3	i	-0.5	1.4%	0.9	0.684
CC(C)C[C@@H]1CN(CCCC[C@H]2CNC(=O)C(=O)N2CCC2CCCCC2)C(=O)C(=O)N1Cc1ccccc1	1.8	.	i	.	.	2.5	.
CCn1cc(C(=O)O)c(=O)c2cc(F)c(N3CCN(C(=S)Nc4ccccc4OC)CC3)cc21	2.6	-2.9	i	-28.8	-5.2%	3.8	0.0735*
COc1ncnc2c1ncn2CCCN(C)CCc1ccccn1	-2.2	.	i	.	3.2%	-3.3	.
O=C(CNc1ccc(F)cc1)N/N=C/C1CC=CCC1 (stereo unspecified)	2.9	-2.7	i	.	0.0%	0.3	.
COc1ccccc1C(=O)N/C(=C\c1ccccc1)C(=O)NCc1ccco1	0.8	?	i	1.5	.	-3.3	0.67
CCOC(=O)c1nn(-c2ccc(C)cc2)c(=O)cc1OCC(=O)Nc1cccc(OC)c1	-0.7	-0.1	i	-10.9	-13.0%	2.0	0.728
CN(CC(=O)Nc1ccc(OC(F)(F)F)cc1)C(=O)Cc1cccs1	4.1	.	i	2.5	.	-2.6	0.704
CSCCC(NC(=O)c1ccccc1Cl)C(=O)N1CCN(C(c2ccccc2)c2ccccc2)CC1 (stereo unspecified)	-1.1	4.8	i	3.9	-4.8%	-0.4	0.724
CN(C)c1ccc(-c2cc([C@H]3[C@@H]4C=CCC[C@@]4(C)C(=O)N3Cc3ccccc3)ccc2F)cc1	8.3	-3.4	i	1.3	3.8%	1.4	.
Cc1cccc(-c2noc(CN(C)C(=O)COc3ccccc3)n2)c1	-6.7	0.1	i	5.6	.	2.1	0.667
O=c1[nH]c2ccccc2cc1-c1nnn(-c2ccc(F)cc2)n1	-3.0	-3.5	i	-1.5	.	-1.1	0.686
C[C@@H]1CN([C@@H](C)CO)S(=O)(=O)c2ccc(Br)cc2O[C@H]1CN(C)C(=O)Cc1cccnc1	-2.7&3.1	.	i	.	1.8%	-2.0	.
O=C(NC1CC1)c1cccc(NC(=O)C2CCCC2)c1	1.1	.	i	.	-1.8%	-1.6	.
Cc1ccc(CN(CC2CCCO2)C(=O)CN2C(=O)C(C(C)C)Oc3ccccc32)o1 (stereo unspecified)	.	9.6	.	3.6	3.3%	1.4	0.65
Cc1c(Cc2ccccc2)sc(NC(=O)C(C)(C)C)c1C(N)=O	2.4	4.1	i	6.5	-8.7%	-0.7	0.64
Cc1nnc(NC(=O)CSc2nc(CC(C)C)nc3c2c(=O)n(C)c(=O)n3C)s1	-1.3	0.8	i	1.0	-4.3%	-9.7	0.695
O=C(N/N=C/C=C/c1ccco1)/C(=C/c1ccccc1)NC(=O)c1ccccc1	-2.6	0.0	i	.	?	-2.8	.
O=C(CSc1ccccc1[N+](=O)[O-])NC1CCS(=O)(=O)C1 (stereo unspecified)	.	3.5	.	4.5	.	0.2	0.668
CCOC(=O)C(c1ccccc1)C(Nc1ccc(F)cc1)c1ccccn1 (stereo unspecified)	0.1	-0.6	i	3.3	-1.8%	2.3	0.672
COc1ccc(NC(=O)/C(=C/c2cccnc2)NC(=O)c2cccs2)cc1	.	-2.1	.	2.2	.	-0.8	0.694
Cc1cc(NC(=O)c2c(-c3c(F)cccc3Cl)noc2C)no1	0.2	2.7	i	2.8	.	1.1	0.654
COc1ccc(C(=O)NC2CCN(C(=S)Nc3cccc(C)c3C)CC2)cc1	-1.1	-3.0	i	4.1	0.1%	-0.3	0.664
COC(=O)Cc1nnc(NC(=O)C(C)C)s1	.	4.3	.	3.9	?	-3.8	0.715
CCn1ccc(C(=O)Nc2ccccc2Cl)n1	-3.8	1.5	i	3.6	.	-1.2	0.711
CC(=O)Nc1nc(C2CC2)cc(-c2ccccc2)c1C#N	0.6	-2.6	i	0.0	.	4.2	0.672
CC1CC(C)CN(S(=O)(=O)c2ccc(Oc3ccc([N+](=O)[O-])cc3)cc2)C1 (stereo unspecified)	.	2.5	.	-2.4	6.8%	0.4	0.703
COc1ccc(/C=C/C(=O)OCC(=O)c2c(C)[nH]c3ccccc23)cc1OC	5.1	0.1	i	-3.7	.	0.8	0.727
Cc1cc(=O)oc2cc(OCCSCCN3CCCC3)ccc12	-1.8	4.8	i	-22.6	.	-0.3	0.677
O=C(CSc1ccc(-c2nc3ccccc3[nH]2)cn1)N1CCN(C(=O)c2ccco2)CC1	.	1.3	.	-25.6	3.1%	1.9	0.713
Cn1c(-c2ccccc2)cc2onc(-c3ccccc3)c2c1=O	-6.6	.	i	0.9	.	4.2	0.675
O=S(=O)(NCC1CCCO1)c1cnc(Cl)c(Cl)c1 (stereo unspecified)	.	6.0	.	0.3	6.8%	1.1	0.674
O=C(NCCCn1ccnc1)c1ccccc1F	0.8	-3.5	i	2.9	.	1.1	0.652
CCCCCOC(=O)NCCOC(=O)Nc1ccc(C(=O)OCC)cc1	.	-3.4	.	6.5	23.2%	0.5	0.726
COC(=O)c1cc(C(=O)OC)cc(N2C(=O)CC(N3CCN(c4ccccc4)CC3)C2=O)c1 (stereo unspecified)	.	2.3	.	3.6	4.6%	1.4	0.689
Cc1ccc(C(C)NC(=O)c2ccco2)cc1 (stereo unspecified)	.	1.0	.	1.2	-2.5%	2.1	0.659
Cc1cc(/C=C2\Cc3ccccc3C2=O)c(C)n1-c1ccccc1	4.3	23.5*	i	-10.8	.	11.4	0.651
O=C(N/N=C\c1cccnc1)c1ccc(Br)s1	2.0	1.6	i	.	.	0.5	.
Cc1ccc([C@H]2C(C(=O)O)=CC[C@@H](c3ccc4c(c3)OCO4)N2S(=O)(=O)c2ccc(C)cc2)cc1	-0.7	.	i	4.6	.	-2.4	0.671
CCOc1ccc(N(CC(=O)Nc2cccc(Br)c2)S(C)(=O)=O)cc1	2.0	-5.0	i	-0.9	.	1.9	0.654
CC(C(=O)O)N1C(=O)C2C3c4ccccc4C(c4ccccc43)[C@@H]2C1=O (stereo partly specified)	-3.4	5.6	i	0.8	0.5%	4.6	0.701
Cc1ccc(-c2nc(NCCCO)c3ccccc3n2)cc1	3.7	7.6	i	2.2	-0.4%	-1.5	0.664
COc1ccccc1/C=N/NC(=O)C(NC(=O)c1ccccc1)=C(C)C	.	5.8	.	.	2.8%	0.9	.
COC(=O)c1scc(C)c1NC(=O)C(Cl)c1ccccc1 (stereo unspecified)	-0.9	-0.6	i	0.6	.	-0.2	0.715
CCOC(=O)Cn1c(=O)oc2cc(S(=O)(=O)NCCCc3ccccc3)ccc21	-5.4	-0.8	i	1.4	-4.0%	3.3	0.765
CCCNC(=O)C1(C)CCN(C(=O)c2cccc(C#N)c2)C1 (stereo unspecified)	27.8*	.	i	.	.	2.8	.
Cc1c(C(N)=O)sc2ncn(CCOc3ccccc3)c(=O)c12	-2.2	3.4	i	4.3	.	4.2	0.665
O=c1cc(NCc2ccco2)c2ccccc2o1	.	1.9	.	1.0	3.9%	0.3	0.641
C=CCNC(=S)NCC1COc2ccccc2O1 (stereo unspecified)	1.2	1.1	i	5.8	5.5%	-0.3	0.649

Continued.
SMILES	MLL AF4-AF9 inh	RanGTP-Impb inh	FGF22 binding	UCH37 DUB inh	Vif A3G	HNF4A DNA FP	Ecoli growth
COC(=O)c1ccc2[nH]c(C3(O)CCCCC3)c(C)c2c1	-9.7	.	i	-0.7	.	-2.4	0.674
COc1ccc(/C=N\NC(=O)c2ccc(F)cc2)cc1COc1ccccc1C(N)=O	-4.1	-3.5	i	.	.	-1.3	.
CCOC(=O)C(CCCCC(NC(C)=O)(C(=O)OCC)C(=O)OCC)(NC(C)=O)C(=O)OCC	.	0.6	i	5.3	-0.6%	1.2	0.699
CN(C)CC1CC/C(=C\c2ccc(O)cc2)C1=O (stereo unspecified)	-2.3	.	i	.	-1.2%	-3.6	.
O=C(NC(Cc1c[nH]c2ccccc12)C(=O)O)/C(=C\c1ccccc1)NC(=O)c1ccccc1 (stereo unspecified)	-0.9	0.4	i	6.7	.	1.6	0.673
O=C(Nc1ccc(Cl)c(Cl)c1)Nc1nnc(CSc2ccccc2)s1	-11.6	0.5	i	3.7	18.0%	6.0	0.716
COC(=O)c1ccc(COC(=O)c2ccccn2)cc1	.	6.3	.	4.4	?	-2.0	0.71
CCN(C[C@H]1N[C@@](Cc2ccccc2)(C(=O)OC)[C@H]2C(=O)N(C)C(=O)[C@@H]12)C(=O)c1ccc(C)cc1	-0.8	.	i	5.1	-9.5%	1.6	0.699
O=C(CN1C(=O)NC2(CCc3ccccc32)C1=O)Nc1ccccc1Cl (stereo unspecified)	-11.2	.	i	2.5	.	-5.0	0.658
COc1ccc(C(C(=O)NC2CCCCC2)N(C(=O)CCCC(=O)Nc2ccccn2)c2ccc3c(c2)OCCO3)cc1 (stereo unspecified)	4.6	0.3	i	2.4	21.1%	-0.7	0.707
CC(NC(=O)C(NS(=O)(=O)c1cccs1)C(C)C)c1ccc(S(N)(=O)=O)cc1 (stereo unspecified)	-0.2	.	i	0.6	82.8%	-3.0	0.7
COc1ccc(-n2c(=O)c3c4c(sc3n(CC(=O)NC3CCCC3)c2=O)CCCC4)c(OC)c1	4.1	-8.8	i	4.1	.	-1.1	0.643
O=C(NC1CCCCC1)C(c1ccco1)N(Cc1ccco1)C(=O)c1ccco1 (stereo unspecified)	.	-0.3	.	0.9	4.5%	-2.1	0.682
Cc1ccc(C)n1-c1ccc(-c2ccnc(N)n2)cc1	2.4	.	i	-39.7	-9.2%	11.5	0.69
CCCCn1c(N)c(N(CCOC)C(=O)c2cccc(S(=O)(=O)N(CC)c3ccccc3)c2)c(=O)[nH]c1=O	-1.0	-0.2	i	0.5	2.5%	2.4	0.696
CC1(C)CC(N2CCN(C(c3ccccc3)c3ccccc3)CC2)=CC(=[N+]2CCCCC2)C1	6.6	6.0	i	7.9	1.1%	-1.3	0.602
O=C(Cc1cccc2ccccc12)N/N=C/C=C/c1cccc([N+](=O)[O-])c1	1.9	-0.4	i	.	12.9%	1.4	.
CCCCC1CCc2[nH]nc(C(=O)O)c2C1 (stereo unspecified)	-3.4	.	i	0.1	.	0.9	0.658
Cc1cc(C)c2c(C)nn(C3CCCCC3)c2n1	.	-0.5	.	3.2	?	-1.8	0.712
Cc1cc(C)c(OCCOCCN2CCN(C)CC2)c(Cl)c1	4.2	1.6	i	1.4	.	-1.8	0.646
C/C(=N\N1CCCCC1)c1ccccc1O	1.3	2.2	i	.	-7.0%	-1.6	.
CC1CCc2sc(C(=O)NN=C3CCCC3)cc2C1 (stereo unspecified)	-1.8	.	i	.	-4.9%	6.1	.
C[C@H](CO)N1C[C@H](C)[C@@H](CN(C)Cc2cccc(F)c2)Oc2cc(-c3cccc(C#N)c3)ccc2S1(=O)=O	-1.5&-0.7&-1.4	.	i	.	.	-1.8	.
CCOc1cccc(C(=O)Nc2ccc(N3CCN(S(C)(=O)=O)CC3)cc2)c1	.	-5.4	.	-5.1	0.7%	-0.8	0.68
CN(CC(=O)Nc1ccc(F)cc1)C(=O)COC(=O)CNC(=O)c1sc2ccccc2c1Cl	-0.5	1.6	i	.	.	-1.5	.

Assay outcomes as filed in PubChem BioAssay.
